Ecoli growth: inhibitors of Escherichia coli growth; AID 1053175; OD600, 23 h; stronger effect = lower value; OD600 absorbance (no concentration beside the values); 0.21% of 330,000 active;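 active means OD600 absorbance below the run mean of sample wells minus 3.6 SD, in any replicate, cut at about 0.56 in these data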;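 further: stock transfer was 300 nL into about 60 µL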
ALR H2O2 inh: inhibitors of human sulfhydryl oxidase ALR | P55789 | purified ALR, DTT oxidation, H2O2 HRP-luminol luminescence | inhibition, % (test concentration not listed) | 3.8% of 290,000 active | AID 485317;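 active means mean and each replicate at 75% or more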;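 further: stock transfer was 7.5 nL into about 7.5 µL; 0% = neutral wells and 100% = wells with inactivated enzyme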
Target sequence (P55789 whole entry, looked up): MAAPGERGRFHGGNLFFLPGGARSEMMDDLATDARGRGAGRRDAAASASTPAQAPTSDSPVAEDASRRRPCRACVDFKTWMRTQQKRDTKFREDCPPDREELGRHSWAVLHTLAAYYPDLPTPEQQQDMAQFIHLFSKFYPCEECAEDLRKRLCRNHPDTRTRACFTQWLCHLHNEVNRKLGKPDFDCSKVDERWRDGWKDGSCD
AF4-AF9 inh: blocks AF4 peptide binding to human AF9 | AlphaScreen, biotin-AF4 peptide binding to FLAG-AF9 | 0.47% of 350,000 active | AID 651704 | inhibition, % at 10 µM | P42568;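 active means every replicate reaching a set inhibition limit, whatever the replicate mean, cut at about 25% in these data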;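 further: 0% = plate neutral control median and 100% = total signal loss; the record names both 10 and 1 µM as test concentration; the first replicate is given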
Target sequence (P42568 whole entry, looked up): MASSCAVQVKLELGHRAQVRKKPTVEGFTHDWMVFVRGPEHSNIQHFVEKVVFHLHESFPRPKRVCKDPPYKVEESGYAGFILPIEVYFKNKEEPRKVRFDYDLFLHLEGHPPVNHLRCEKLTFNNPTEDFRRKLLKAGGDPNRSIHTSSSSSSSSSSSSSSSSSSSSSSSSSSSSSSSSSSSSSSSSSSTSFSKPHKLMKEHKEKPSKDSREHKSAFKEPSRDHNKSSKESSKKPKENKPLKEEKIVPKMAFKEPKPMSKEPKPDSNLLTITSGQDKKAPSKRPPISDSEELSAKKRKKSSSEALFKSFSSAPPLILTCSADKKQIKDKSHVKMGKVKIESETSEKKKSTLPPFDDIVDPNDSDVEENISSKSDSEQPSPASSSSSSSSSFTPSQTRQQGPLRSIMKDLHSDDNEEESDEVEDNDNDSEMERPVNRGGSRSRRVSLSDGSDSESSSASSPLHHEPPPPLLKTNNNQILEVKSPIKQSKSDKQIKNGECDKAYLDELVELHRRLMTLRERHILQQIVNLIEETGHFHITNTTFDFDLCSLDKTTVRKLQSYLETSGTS
FGF22 binding: FGF22 (human) thermal shift binding | AID 651658 | 1.5% of 340,000 active | recombinant FGF22 thermal shift, SYPRO orange fluorescence; percent of sucrose octasulfate shift, DMSO zero | Q9HCT0 | calls only at 9.99 µM;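 active means melting point raised past a set limit in the mean and every replicate; three in four hits are not shown here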
Target sequence (Q9HCT0 whole entry, looked up): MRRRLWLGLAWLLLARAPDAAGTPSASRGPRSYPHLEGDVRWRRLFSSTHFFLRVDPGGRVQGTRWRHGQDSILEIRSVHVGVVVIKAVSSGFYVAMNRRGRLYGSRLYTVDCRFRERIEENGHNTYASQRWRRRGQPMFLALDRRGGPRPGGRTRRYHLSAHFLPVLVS
Vif A3G: inhibitors of Vif binding to APOBEC3G peptide, primary screen, biochemical, TR-FRET, GST-Vif 1-94, biotin-A3G peptide, dose response retest (AID 1117319) | TR-FRET GST-Vif / biotin-A3G peptide binding; higher % means a stronger effect; test concentration not given here; strong numbers were not always called active | one-dose inhibition, %; IC50 in µM for titrated hits | 0.57% of 260,000 active;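 active means above the screen mean plus three standard deviations and confirmed in dose response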;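 further: Vif residues 1-94 fused to GST binding biotinylated APOBEC3G peptide 110-148; 0% = full assay without inhibitor and 100% = GST in place of GST-Vif; retest series ran down from 100 µM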
HNF4A DNA FP: change in binding of human HNF4 alpha to DNA; P41235; HNF4a-FITC DNA binding, fluorescence polarization, 1 h; activity change, % at 10 µM; 0.3% of 360,000 active; AID 1224865; in the data active means activity change above about 30%, passing the limit was not always enough;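 further: controls were the assay level and a saturating level of protein; the project sought stronger binding though the title names inhibitors; some compounds called inactive have numbers as strong as hits; positive values seem to mean higher polarization but the record does not say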
rRNA inh HTS: inhibitors of bacterial rRNA selective over humanized ribosomes; 1.6% of 350,000 active; GFP signal change (wild-type ribosome), % (concentration not given with the values); AID 720706; E. coli WT GFP vs humanized-ribosome RFP mutants, fluorescence, 24 h; stronger effect = lower value; DMSO median 0, no signal -100;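 active means significant combined selectivity score with lowered wild-type GFP, culture density cut under 30%, mutant RFP and density less affected; inactive means any of these conditions unmet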; further: one replicate is shown; some compounds called inactive have numbers as strong as hits
rRNA inh HTS OD600: further read-out of rRNA inh HTS, marked with its call; OD600 change, %; measured here: OD600 growth;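 optical density of the mix in the first replicate; 0 = DMSO median and -100 = no signal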
rRNA inh HTS RFP: second read-out of rRNA inh HTS, no call of its own (marks repeat the call); RFP signal change, %; measured here: RFP humanized mutant strains;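 first replicate; 0 = DMSO median and -100 = no signal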
The depositor's hits bear a star; i = inactive; . = no result given. The list is partial; the hit share may differ from the screen's.

item	mol	Ecoli growth	ALR H2O2 inh	AF4-AF9 inh	FGF22 binding	Vif A3G	HNF4A DNA FP	rRNA inh HTS	rRNA inh HTS OD600	rRNA inh HTS RFP
1	Cc1ccc(NC(=O)CCC(=O)NNS(=O)(=O)c2ccccc2)c(C)c1	0.709	38.4	.	.	12.1%	1.2	.	.	.
2	CC(=O)Nc1cccc(NC(=O)CSc2ccc(C(F)(F)F)cc2[N+](=O)[O-])c1	0.749	-12.1	.	.	6.9%	-3.1	.	.	.
3	O=C(C[C@@H]1CC[C@H]2[C@@H](COC[C@@H](O)CN2Cc2nccs2)O1)N1CCC(Cc2ccccc2)CC1	.	.	0.9	i	.	.	-18.3	-26.5	2.8
4	CCCNC(=O)COC(=O)/C(C#N)=C/c1cc(C)n(CCC)c1C	0.701	.	-0.8	.	.	-0.8	2.0	-4.4	-0.9
5	C[C@@H]1CN([C@@H](C)CO)C(=O)c2cccc(NC(=O)Nc3ccc4c(c3)OCO4)c2O[C@H]1CN(C)C(=O)Nc1cccc2ccccc12	.	.	6.7	i	.	.	-5.1	1.1	-0.7
6	N#CC1=C(N)Oc2cc(N)ccc2C1c1ccsc1 (centres undefined)	0.697	-3.5	.	.	2.3%	3.9	.	.	.
7	COc1ccc(-c2ccc([C@H]3[C@@H](C#N)N(C(=O)NC(C)C)[C@H]3CO)cc2)cc1	.	.	0.0	i	.	.	4.7	-5.6	0.8
8	O=C(NCCc1ccc2c(c1)OCCO2)c1cc(S(=O)(=O)N2CCCC2)ccc1Cl	0.693	.	-1.6	.	-3.6%	2.0	-1.3	-3.0	1.6
9	Cc1c(C(=O)O)[nH]c2c1C(=O)CC(c1ccc(C(C)(C)C)cc1)C2 (centres undefined)	0.671	13.6	-2.7	i	2.5%	-4.8	7.8	12.3	1.4
10	C/C(=C1/SC(N2CCCC2)=NC1=O)c1ccc(Br)cc1	0.728	0.9	.	.	6.2%	0.7	.	.	.
11	C[C@@H]1CCCCO[C@@H](CN(C)S(=O)(=O)c2ccccc2)[C@H](C)CN([C@H](C)CO)C(=O)c2cc(NS(=O)(=O)c3ccc(Cl)cc3)ccc2O1	.	.	0.0	i	.	.	0.3	-2.8	1.2
12	CC(C)CCNC(=O)CN(C(=O)CCC(=O)Nc1ccccn1)c1ccc2c(c1)OCO2	0.733	-9.1	.	.	3.0%	-2.6	.	.	.
13	CCCCN1CC(COCc2ccccc2)Oc2cc(Br)ccc2S1(=O)=O (centres undefined)	.	.	-4.0	i	-3.3%	-1.7	5.3	12.6	4.9
14	C/C=C/c1ccc(OCC(=O)NNC(=O)CN(C)S(=O)(=O)c2ccc(C)cc2)c(OC)c1	0.681	-17.6	-5.0	i	.	2.6	-17.4	-24.3	-5.5
15	CN1N=C(/C=C/c2ccccc2)CCC1=O	.	2.0	0.6	i	-7.5%	-1.4	16.9	17.5	1.8
16	COc1cc(/C=C2\C(=N)N3N=CSC3=NC2=O)cc(Br)c1OC(=O)c1ccco1	0.712	15.6	0.8	i	-0.1%	39.3*	-2.2	-1.1	3.1
17	Cc1ccc(NC(=O)CSc2nc(=O)cc(N)n2-c2ccccc2)cc1	0.708	.	.	.	-4.4%	-0.4	.	.	.
18	Cc1cc(NC(=O)CSc2nc(N)c(NC(=O)c3ccccc3F)c(=O)[nH]2)no1	0.744	2.0	0.7	i	-3.2%	1.1	-0.6	3.4	2.3
19	Cc1c(Cl)c([N+](=O)[O-])nn1CCCC(=O)Nc1cccnc1	0.683	-53.9	-1.9	i	-11.4%	1.7	3.5	5.5	-1.9
20	CCOc1ccccc1N(CC(=O)Nc1cc(OC)ccc1OC)S(=O)(=O)c1ccccc1	0.71	38.5	-0.1	i	1.0%	-5.9	10.1	12.3	3.3
21	Cc1ccc(CNC(=O)CO/N=C/c2ccc(C(C)(C)C)cc2)cc1	.	1.2	-0.9	i	-8.8%	3.8	6.3	1.3	3.0
22	O=C1Cn2c(nc3ccccc32)-c2ccccc2N1	0.611	-1.2	.	.	-5.4%	1.6	5.7	7.1	-1.5
23	CC1CCCC(C)N1C(=O)COC(=O)C1CCN(S(=O)(=O)c2ccc3c(c2)OCCO3)CC1 (centres undefined)	0.718	.	1.2	i	4.2%	-1.5	-4.2	-12.1	4.8
24	CCCN1C[C@@H](C)[C@H](OC)CN(C)C(=O)c2cc(NC(=O)c3cccc(F)c3)ccc2OC[C@@H]1C	.	.	-1.8	i	.	.	2.4	-0.8	-0.2
25	COc1ccc(CCNC(=O)CS(=O)Cc2nc(-c3ccccc3Cl)oc2C)cc1OC (centres undefined)	0.693	98.2*	-2.2	i	.	2.7	-9.6	-5.7	-0.4
26	COc1cc2nc(C3CCC3)n(NC(=O)C3CCCC(OC)C3)c(=O)c2cc1OC (centres undefined)	0.705	-1.4	6.9	i	2.6%	4.5	9.7	7.5	-5.6
27	O=C(COC(=O)c1ccccc1Br)Nc1ccccc1F	.	0.1	-1.4	i	3.5%	1.8	-8.6	-1.2	7.0
28	CN1C(=O)c2cc(NC(=O)NC3CCCC3)ccc2OC[C@@H]2O[C@@H](CC(=O)NCC3CC3)CC[C@H]21	.	.	-4.5	i	.	.	3.8	10.9	-3.3
29	COc1ccc(NC(=O)COC(=O)Cc2coc3cc(OC)ccc23)c(OC)c1	0.705	-4.5	-2.7	i	-2.1%	-0.7	-33.9*	-21.5*	-1.6*
30	COc1cc(C(O)c2nc(-c3cccc(NC(C)=O)c3)cs2)ccc1F (centres undefined)	.	.	0.0	i	.	-2.8	0.3	-6.3	5.2
31	C(=N\Nc1ncnc2sc3c(c12)CCC3)/c1ccncc1	.	20.3	.	.	12.2%	0.7	.	.	.
32	COc1ccccc1C(=O)Nc1cccc(N(C)S(C)(=O)=O)c1	0.697	3.7	.	.	14.9%	1.5	.	.	.
33	O=c1nc(N2CCCCC2)nc(Nc2ccccc2)[nH]1	0.696	-2.7	.	.	7.1%	-2.0	.	.	.
34	Cc1cc(C(=O)Nc2cccc3ccccc23)co1	0.709	-10.5	1.3	i	5.6%	1.5	1.9	3.3	-1.0
35	CO[C@@H]1CN(C)C(=O)c2cc(NC(=O)Nc3ccccc3F)ccc2OC[C@H](C)N(CCC(F)(F)F)C[C@H]1C	.	.	1.6	i	.	.	-0.2	2.2	1.6
36	CCCC12CN(C(=O)c3ccc(OC)cc3)CC(C)(CN(C(=O)c3ccc(OC)cc3)C1)C2=O	0.689	2.2	.	.	4.7%	3.9	.	.	.
37	Cc1cc(C)cc(C(=O)N/N=C/c2ccoc2)c1	.	-4.3	-0.8	i	9.3%	-2.1	2.4	1.2	1.8
38	COc1ccc(Cn2c(C)nc([N+](=O)[O-])c2SCC(=O)O)cc1[N+](=O)[O-]	0.655	-1.6	-1.0	i	.	-0.7	8.1	3.0	0.1
39	Cn1c(=O)c2ncn(CC(=O)Nc3ccc4c5c(cccc35)CC4)c2n(C)c1=O	0.691	-22.6	.	.	12.6%	14.6	.	.	.
40	O=c1[nH]c2cc3c(cc2cc1CN(Cc1nnnn1C1CCCC1)C1CCCC1)OCCO3	0.691	-0.5	.	.	-1.1%	3.6	.	.	.
41	C[C@@H](NC(=O)C[C@H]1C=C[C@@H](NC(=O)C2CC2)[C@H](CO)O1)c1ccccc1	.	.	-0.4	i	.	.	-0.1	-1.6	-1.0
42	O=C(CNS(=O)(=O)c1cccc(Cl)c1)OCc1csc(-c2ccccc2)n1	.	0.5	.	.	-7.8%	-0.5	.	.	.
43	COc1ccc(CCNC(=O)CCS(=O)(=O)c2ccc3c(c2)NC(=O)C(C)S3)cc1OC (centres undefined)	0.679	0.7	-3.2	i	6.0%	-1.1	5.3	11.0	2.2
44	CCCC1=C(C(=O)OCC)C(c2ccc(O)cc2)n2ncnc2N1 (centres undefined)	0.799	-1.3	.	.	-0.1%	4.8	.	.	.
45	C=CCN1C(=O)c2ccc(C(=O)NCCc3ccc(F)cc3)cc2C1=O	0.683	1.6	-2.0	i	-2.5%	2.3	10.6	7.1	-2.6
46	O=C(c1cc(=O)[nH]c2ccccc12)N1CCN(c2ccc([N+](=O)[O-])cc2)CC1	0.655	0.6	9.6	i	1.4%	2.6	1.8	-0.2	0.0

Two entries from above, with values under each structure.
Each structure is followed by: Ecoli growth, ALR H2O2 inh, AF4-AF9 inh, FGF22 binding, Vif A3G, HNF4A DNA FP, rRNA inh HTS, rRNA inh HTS OD600, rRNA inh HTS RFP
37. Cc1cc(C)cc(C(=O)N/N=C/c2ccoc2)c1
 : ., -4.3, -0.8, i, 9.3%, -2.1, 2.4, 1.2, 1.8
38. COc1ccc(Cn2c(C)nc([N+](=O)[O-])c2SCC(=O)O)cc1[N+](=O)[O-]
 : 0.655, -1.6, -1.0, i, ., -0.7, 8.1, 3.0, 0.1

Structural class, those above containing fluorine
item	mol	Ecoli growth	ALR H2O2 inh	AF4-AF9 inh	FGF22 binding	Vif A3G	HNF4A DNA FP	rRNA inh HTS	rRNA inh HTS OD600	rRNA inh HTS RFP
2	CC(=O)Nc1cccc(NC(=O)CSc2ccc(C(F)(F)F)cc2[N+](=O)[O-])c1	0.749	-12.1	.	.	6.9%	-3.1	.	.	.
18	Cc1cc(NC(=O)CSc2nc(N)c(NC(=O)c3ccccc3F)c(=O)[nH]2)no1	0.744	2.0	0.7	i	-3.2%	1.1	-0.6	3.4	2.3
24	CCCN1C[C@@H](C)[C@H](OC)CN(C)C(=O)c2cc(NC(=O)c3cccc(F)c3)ccc2OC[C@@H]1C	.	.	-1.8	i	.	.	2.4	-0.8	-0.2
27	O=C(COC(=O)c1ccccc1Br)Nc1ccccc1F	.	0.1	-1.4	i	3.5%	1.8	-8.6	-1.2	7.0
30	COc1cc(C(O)c2nc(-c3cccc(NC(C)=O)c3)cs2)ccc1F (centres undefined)	.	.	0.0	i	.	-2.8	0.3	-6.3	5.2
35	CO[C@@H]1CN(C)C(=O)c2cc(NC(=O)Nc3ccccc3F)ccc2OC[C@H](C)N(CCC(F)(F)F)C[C@H]1C	.	.	1.6	i	.	.	-0.2	2.2	1.6
45	C=CCN1C(=O)c2ccc(C(=O)NCCc3ccc(F)cc3)cc2C1=O	0.683	1.6	-2.0	i	-2.5%	2.3	10.6	7.1	-2.6
